Arbovirus anti: blocks arbovirus infection. arbovirus infection cell-based antiviral screen. inhibition, % at 10 µM. actives 0.37% (n = 200,000);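 active = inhibition from about 30%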;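 also: bluetongue infection of BSR cells; cell survival read as ATP light after 72 h; 0% = infected wells without compound and 100% = uninfected wells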
RecA intein inh: blocks M. tuberculosis RecA intein splicing | actives 0.75% (n = 290,000) | cell-free RecA intein splicing, fluorescence | inhibition, %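 (about 9 µM by stock and volumes)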; in the data active = inhibition above about 30%; inconclusive = no clear call, values can overlap the other calls;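 also: 0% = vehicle wells and 100% = reference inhibitor control wells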
Target sequence (P9WHJ3 whole entry, looked up): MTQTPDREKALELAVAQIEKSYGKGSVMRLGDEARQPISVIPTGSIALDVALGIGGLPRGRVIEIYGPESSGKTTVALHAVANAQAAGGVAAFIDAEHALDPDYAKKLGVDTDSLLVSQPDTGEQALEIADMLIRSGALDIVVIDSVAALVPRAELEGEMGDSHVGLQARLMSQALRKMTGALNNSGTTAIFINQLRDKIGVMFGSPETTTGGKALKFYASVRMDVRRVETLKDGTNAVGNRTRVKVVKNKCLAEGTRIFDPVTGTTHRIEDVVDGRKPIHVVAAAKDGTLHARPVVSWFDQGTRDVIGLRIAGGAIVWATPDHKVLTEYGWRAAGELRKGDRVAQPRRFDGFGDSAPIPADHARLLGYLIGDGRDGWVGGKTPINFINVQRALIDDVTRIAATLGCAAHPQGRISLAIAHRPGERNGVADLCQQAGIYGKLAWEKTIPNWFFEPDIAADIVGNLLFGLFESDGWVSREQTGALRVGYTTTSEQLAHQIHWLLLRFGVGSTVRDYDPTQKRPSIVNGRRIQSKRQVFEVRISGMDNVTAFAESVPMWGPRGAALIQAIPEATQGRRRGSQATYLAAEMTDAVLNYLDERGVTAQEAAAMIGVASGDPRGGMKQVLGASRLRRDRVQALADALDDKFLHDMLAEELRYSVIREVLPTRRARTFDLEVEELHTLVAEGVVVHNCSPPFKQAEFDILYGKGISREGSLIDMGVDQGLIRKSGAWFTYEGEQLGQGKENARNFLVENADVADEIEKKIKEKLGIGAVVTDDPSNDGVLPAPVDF
Mtb betalactam: beta-lactam sensitization of Mtb H37Rv | M. tuberculosis H37Rv growth with meropenem, percent inhibition; hits of this screen are not shown here | actives 0.27% (n = 330,000) | inhibition, % at 25 µM;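 active = about 74% or more and at least 40 points above the plate without the antibiotic, then above 30% in a dose series; inconclusive = first-round hits that could not be retested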;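 also: growth measured after seven days incubation then overnight dye step; 0% = bacteria only wells and 100% = bacteria with antibiotic; twin plates without the antibiotic show which effects depend on it; some results filed as inactive read as strong as hits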
Mtb growth: M. tuberculosis H37Rv growth inhibitors, H37Rv strain (AID 1626) | one-dose inhibition, % at 10 µM; IC50 in µM for titrated hits | M. tuberculosis H37Rv growth inhibition; higher % means a stronger effect | actives 0.95% (n = 220,000);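 active = confirmed in a dose series; inconclusive = inhibition above 80% but not taken into the dose series; inactive = below 80% or under 30% at every dose of the series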;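 also: bacteria incubated seven days before Alamar blue readout; 0% = bacteria only wells and 100% = bacteria with antibiotic wells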
YopH PTP inh: blocks Yersinia enterocolitica YopH tyrosine phosphatase. inhibition, %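 (about 10 µM by stock and volumes)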. fluorescence Ex485/Em525. AID 898. actives 0.16% (n = 140,000);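 active = inhibition of 50% or more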;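 also: controls were vehicle for no effect and minimum signal wells for full effect; inactives centre near -20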
Arbovirus anti repeat: further read-out of Arbovirus anti, marked with its call; inhibition, %; measured here: 10K subset replicate screen; many hits read low in the repeat;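 first of two repeat runs on a subset; 0% = infected and 100% = uninfected wells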
Starred values were filed as active, the others as inactive; u = inconclusive; x = no result given.

SMILES | Arbovirus anti | RecA intein inh | Mtb betalactam | Mtb growth | YopH PTP inh | others
Cc1ccc(NC(=Nc2ccc(Br)cc2)N2CCOCC2)cc1C | x | 2.4 | 3 | x | x
Cc1ncc([N+](=O)[O-])n1CC(=O)Nc1ccc(Cl)cc1 | x | -1.2 | 2 | x | x
CCC1COCCS(=O)(=O)N1Cc1ccccc1 (stereo not given) | x | 1.4 | -8 | x | x
Cc1cccc(S(=O)(=O)Nc2ccc(-c3ccc4nncn4n3)cc2)c1 | x | -1.5 | 1 | x | x
CN(C)CCCN(C(=O)c1ccc2c(c1)CCCC2)c1nc2cc3c(cc2s1)OCO3 | x | 3.6 | 14 | x | x
O=C(NC1CCN(C(=S)NCc2ccco2)CC1)NC12CC3CC(CC(C3)C1)C2 | -4 | -0.4 | 6 | 2% | -31
O=C(NCc1ccccc1C(F)(F)F)C1CC(c2ccccc2C(F)(F)F)=NO1 (stereo not given) | x | 7.4 | -11 | 2% | x
NC(=O)c1c(NC(=O)c2ccccc2)sc2c1CCc1ccccc1-2 | 2 | -3.5 | -6 | -2% | 1
CCN(CC)CCCNC(=O)CCn1nc(-c2ccccc2)ccc1=O | x | -2.3 | -2 | x | x
CCc1ccccc1NC(=S)N1CCC(C(=O)c2ccc(F)cc2)CC1 | 7 | 2.1 | -1 | 9% | -3
CC(NC(=O)c1cc(-c2ccccc2)on1)c1ccccc1 (stereo not given) | 0 | -1.5 | -2 | 8% | -20
Cn1c(=O)c2c(nc(SCC(=O)NC34CC5CC(CC(C5)C3)C4)n2C)n(C)c1=O | 8 | 0.1 | -11 | -9% | -37
COc1cccc(NC(=S)NCCc2ccccn2)c1 | -2 | -2.9 | 6 | 2% | x
CCc1ccccc1N(C(=O)CCC(=O)Nc1cc(C)on1)C(C(=O)NC1CCCC1)c1ccco1 (stereo not given) | x | 2.5 | -8 | 10% | x
COc1cccc(NC(=O)c2ccc(CN3CCOCC3)cc2)c1 | -2 | -0.1 | 10 | 6% | -37
COc1ccc(C2/C=C\CN(C(=O)C3CCCCC3)CC(=O)N2Cc2ccc(F)cc2)cc1 (stereo not given) | x | 5.3 | -3 | -5% | x
CO/N=C/NC(=O)NOCc1c(Cl)cccc1Cl | 4 | 1.3 | -9 | -7% | -19
COC(=O)c1ccc(NC(=O)C(=O)c2c[nH]c3ccccc23)cc1 | x | -0.8 | 9 | x | x
O=C(NCC1CCCN(Cc2cccc(C(F)(F)F)c2)C1)c1ccc(F)cc1 (stereo not given) | 2 | 1.4 | 0 | -2% | x
O=C(COC(=O)c1cnccn1)NCc1ccc(Cl)cc1 | 0 | -1.6 | -9 | 5% | x
CN1C(=S)SC(N2OC3C(=O)N(c4ccccc4)C(=O)C3C2c2ccccc2)C1(C)C (stereo not given) | -6 | 0.0 | -8 | -12% | -14
CCOC(=O)C1=C(C)NC(=O)NC1c1cccc(O)c1 (stereo not given) | 12 | 0.5 | -8 | -5% | -18
CCOC(=O)CCNC(=O)N1CCC(CCC(=O)NCc2ccc(F)cc2)CC1 | x | -2.1 | 5 | x | x
CCOC(=O)Nc1ccc(S(=O)(=O)Nc2nccc(C)n2)cc1 | 1 | 2.3 | -1 | 1% | -120
S=c1[nH]cnc2sc(-c3ccccc3)cc12 | -1 | -2.3 | 92 | 8.3µM* | x
COc1ccc(N(CC(=O)Nc2cc(Cl)ccc2OC)S(=O)(=O)c2c(C)noc2C)cc1 | -9 | 0.8 | 3 | -1% | -42
Cc1ccccc1CNC(=O)CCC(=O)N1CCOc2ccc(Cl)cc21 | x | -1.1 | -2 | x | x
CCCCCC(=O)Nc1nnc(CCc2ccccc2)s1 | x | 1.4 | 14 | x | x
Cc1c(C(=O)N(CC(C)C)c2c(N)n(Cc3ccccc3)c(=O)[nH]c2=O)sc2nc3n(c(=O)c12)CCC3 | x | -2.5 | 2 | x | x
CCOC(=O)c1ccc(NC(=O)CCNS(=O)(=O)c2cc(Br)cnc2N)cc1 | x | 0.9 | 62 | x | x

Filtered by structure, the compounds so far with a thiophene ring, fused or not.
SMILES | Arbovirus anti | RecA intein inh | Mtb betalactam | Mtb growth | YopH PTP inh | others
NC(=O)c1c(NC(=O)c2ccccc2)sc2c1CCc1ccccc1-2 | 2 | -3.5 | -6 | -2% | 1
S=c1[nH]cnc2sc(-c3ccccc3)cc12 | -1 | -2.3 | 92 | 8.3µM* | x
Cc1c(C(=O)N(CC(C)C)c2c(N)n(Cc3ccccc3)c(=O)[nH]c2=O)sc2nc3n(c(=O)c12)CCC3 | x | -2.5 | 2 | x | x

(cont.)
SMILES | Arbovirus anti | RecA intein inh | Mtb betalactam | Mtb growth | YopH PTP inh | others
CNc1ccccc1C(C)(C)c1cc(-c2cccc([N+](=O)[O-])c2)no1 | 14 | 8.1 | 17 | 8% | x
O=C(Nc1ccc(F)cc1)c1ccc(Br)c(S(=O)(=O)N2CCOCC2)c1 | x | 2.7 | 0 | x | x
COc1ccc(/C=C2\SC(=O)N=C2N)cc1 | 7 | 0.7 | -4 | 0% | -37
COc1ccc(-c2noc(CNC(=O)C(C)Oc3ccccc3)n2)cc1 (stereo not given) | x | 1.5 | 3 | x | x
CCOC(=O)N1CCN(C(=O)c2cccc(OC)c2O)CC1 | 9 | -5.6 | 0 | 0% | -13
CC(=C\C(=O)O)/C(=C\c1cccc2ccccc12)C(=O)O | x | -0.9 | 17 | -7% | x
COc1ccc(Nc2ccccc2C(=O)O)cc1 | 11 | -1.9 | 2 | -3% | x
CCOc1ccccc1C(=O)N/N=C/c1ccoc1 | x | -1.5 | -1 | x | x
CC(C)COP(=O)(CNC(=O)CN1C(=O)c2ccccc2S1(=O)=O)OCC(C)C | 4 | 2.4 | -1 | -5% | -36
Cc1ccc(C)c(S(=O)(=O)NCCN2CCOCC2)c1 | x | -1.7 | -6 | x | x
Cc1ccc(N(C(=O)c2cccs2)C2C=CS(=O)(=O)C2)cc1 (stereo not given) | 1 | 1.0 | 0 | -3% | -46 | Arbovirus anti repeat=5
Cc1cccc[n+]1CC(=O)/C=C1\N(C)c2ccccc2C1(C)C | 5 | -1.8 | -1 | -3% | -15
Cc1nnc(NC(=O)CSc2nnc(Cc3ccccc3)n2-c2ccccc2)s1 | 9 | -1.6 | -7 | -12% | -11
CCOC(=O)C1=C(C)Nc2ccccc2N=C1NC(=O)Cc1ccc(Br)cc1 | -14 | -0.2 | -2 | -1% | -16
CC1=NN(c2ccc(N)cc2)C(=O)C1 | 9 | 74* | 0 | -7% | 8
CC12CN3CCN(CC(C3)C1(O)CN1CCOCC1)C2 (stereo not given) | 9 | 0.5 | -1 | -5% | -33
O=C(CCCNC(=O)c1ccc(Cl)cc1)NCc1ccccc1F | x | -0.1 | -4 | x | x
Cc1ccc(S(=O)(=O)Nc2cccnc2Oc2ccc(Cl)cc2)cc1 | x | 7.8 | 3 | -3% | x
Cc1cccc(NC(=O)c2cc(NC(=O)c3ccco3)ccc2Cl)n1 | -5 | x | 6 | -12% | -22
CCc1ccc(-c2nc(CS(=O)CC(=O)O)c(C)o2)cc1 (stereo not given) | x | 6.0 | 2 | -3% | x
CC(C)NC(=S)NC(=O)/C=C/c1ccc(F)cc1 | -8 | -0.2 | -2 | 3% | -21
CCCCN(CC)CCNC(=O)c1cn(C)c(=O)c2c1c1ccccc1n2C | x | -1.7 | 5 | x | x
O=c1[nH]c(C2CCN(S(=O)(=O)c3ccc4c(c3)OCCO4)CC2)nc2c1nnn2Cc1ccc(F)cc1 | x | 1.3 | 45 | x | x
CN(C)/C(CN1CCN(C=O)CC1)=C1\N=C(c2ccccc2)OC1=O | 6 | 4.5 | 3 | 3% | -26
COc1ccc(CCC(=O)Nc2c(C)n(C)n(-c3ccccc3)c2=O)cc1 | 4 | 0.5 | -6 | 6% | x
O=C1CNC(=S)N1CCCn1ccnc1 | 1 | -4.0 | 0 | 3% | x
COc1cc(Br)c(C2C(C#N)=C(N)Oc3n[nH]c(-c4cccnc4)c32)cc1OC (stereo not given) | 6 | 57* | -6 | 0% | x
COCCn1c(SCC(=O)Nc2cc(Cl)ccc2OC)nc2c(c1=O)SC(C)C2 (stereo not given) | 32* | 8.1 | 5 | -1% | -38 | Arbovirus anti repeat=23*
CC(C)c1nnc(NC(=O)CCCC(=O)O)s1 | 4 | 2.2 | -19 | -13% | -15
O=C(COC(=O)c1ccccc1SCC(=O)N1CCCC1)NC1CCS(=O)(=O)C1 (stereo not given) | x | -1.4 | 1 | x | x

Three compounds already listed, sorted by heavy-atom count, low to high:
SMILES | Arbovirus anti | RecA intein inh | Mtb betalactam | Mtb growth | YopH PTP inh | others
O=C1CNC(=S)N1CCCn1ccnc1 | 1 | -4.0 | 0 | 3% | x
O=C(CCCNC(=O)c1ccc(Cl)cc1)NCc1ccccc1F | x | -0.1 | -4 | x | x
O=c1[nH]c(C2CCN(S(=O)(=O)c3ccc4c(c3)OCCO4)CC2)nc2c1nnn2Cc1ccc(F)cc1 | x | 1.3 | 45 | x | x

(cont.)
SMILES | Arbovirus anti | RecA intein inh | Mtb betalactam | Mtb growth | YopH PTP inh | others
Cc1cc(C)cc(NC(=O)Cn2nnc3ccccc3c2=O)c1 | 8 | 1.7 | 8 | 5% | x
CCN(CC)S(=O)(=O)c1cc(C(=O)Nc2cccnc2Cl)ccc1Cl | -1 | 2.0 | 11 | 9% | x
CCN(CC)CCCN1C=C2C(=O)C(C)(OC(=O)CCc3ccccc3)C(=O)C=C2C=C1c1ccc(C#N)cc1 (stereo not given) | x | -3.7 | -3 | -8% | x
CCCCSc1nc(C(=O)O)cc(=O)[nH]1 | x | 3.6 | 5 | -13% | x
CCOC(=O)N1CCN(CC(O)COc2cc(C)cc(C)c2)CC1 (stereo not given) | x | -3.3 | 12 | x | x
COCc1c(C(=O)OC/C(O)=C(\C#N)c2nc3ccccc3[nH]2)oc2ccccc12 | -18 | -1.1 | 6 | -2% | x
N=c1c(S(=O)(=O)c2ccc(Cl)cc2)cc2c(=O)n3ccccc3nc2n1Cc1cccnc1 | x | -20 | u | x | x
CNC(=O)c1cc(C(=O)c2ccc(C(F)(F)F)cc2)c[nH]1 | x | -1.0 | -2 | x | x
Cc1ccc(-n2c(C)cc(/C=C3/SC(=O)N(CC(=O)N4CCOCC4)C3=O)c2C)nc1 | x | -1.1 | -9 | -6% | x
Cc1cc(C(=O)N2CCCC(N3CCN(c4ccccc4C)CC3)C2)nc(C)n1 (stereo not given) | x | 1.5 | -8 | x | x
CCN1CCN(S(=O)(=O)c2ccc(S(=O)(=O)N(CC)Cc3ccccc3)cc2)CC1 | -3 | 0.8 | 2 | 4% | -13
CC(C)NC(=O)c1ccc(COc2cc(Cl)ccc2Cl)o1 | x | 1.3 | 1 | x | x
O=C(O)C1=NN(c2ccccc2)C(=O)C1 | x | 29 | -1 | -14% | x
CCn1ncc(Br)c1C(=O)Nc1ccc(Cl)cn1 | 4 | -0.4 | 2 | 15% | -10
COC(=O)c1ccccc1-c1ccc(/C=N/NC(=O)c2cc3ccccc3o2)o1 | 9 | -5.3 | 10 | 16% | -8
CC1(C)Cc2c(sc3nc(C4CC4)n(N)c(=O)c23)CO1 | x | 0.3 | 0 | -3% | x
Cc1ccc2oc(=O)c3cc(C(=O)NCCN4CCN(C)CC4)sc3c2c1 | 0 | 0.0 | -4 | -6% | -29 | Arbovirus anti repeat=-3
COc1ccc(C(=O)Nc2cc3c(cc2N2CCCCC2)n(C)c(=O)n3C)cc1OC | x | -0.4 | 7 | x | x
CC(C)[C@H](NC(=O)c1cc2cc(Cl)ccc2n1C)C(=O)N1CCC(C(=O)O)CC1 | x | -0.9 | 3 | x | x
CCCCN(CC)CCCNC(=S)Nc1ccc2nc3n(c(=O)c2c1)CCCCC3 | -4 | 12 | 0 | -5% | -9
S=c1[nH]nc(C2CC2)n1Cc1ccccc1 | 3 | 1.9 | -3 | 0% | x
CCSc1nnc(NC(=O)CN2C(=O)C3CC=CCC3C2=O)s1 (stereo not given) | 5 | -2.3 | 26 | 9% | x
COC(=O)Nc1ccc2c(c1)N(C(=O)CCCl)c1ccccc1S2 | x | 12 | -2 | x | x
Cc1nc(COC(=O)c2c(C)nn(-c3ccccc3)c2C)cs1 | 4 | 1.3 | 0 | -1% | -38
CCCCOc1ccc(C(=O)NCC(=O)NC2CCN(Cc3ccccc3)CC2)cc1 | x | 1.1 | 2 | x | x
COc1cccc(NC(=O)Cc2c(C(=O)O)[nH]c3ccccc23)c1 | 4 | -1.0 | 1 | 3% | -9
O=C(CN1CCCCC1)Nc1ccc(Br)cc1C(=O)c1ccccc1Cl | -23 | 3.1 | 10 | x | -29
CC(=O)c1cccc(NC(=O)Nc2c(C)nn(C)c2C)c1 | 19 | -0.1 | -10 | -7% | -4
c1coc(Cn2nnnc2CN2CCN(C3CCCC3)CC2)c1 | -4 | -1.2 | -9 | x | 18

Bioassay records (PubChem BioAssay)

This is a subset; count on the stated rates, not on these rows.
